RE007 growth inh = qHTS Assay for Inhibitors of the HIV-1 protein Vpr; Potency, µM (top dose mostly 92.2 µM), without a hit: at the top dose activity change, negative = less growth; 360,000 tested, 0.21% active; S. pombe RE007 Vpr strain, BacTiter-Glo ATP luminescence, 24 h; control for the full effect not named in the record; active = well fitted falling curve with a large enough effect; inconclusive = small, poorly fitted or top-dose-only effect; inactive = no such curve, though single readings can be large or run the other way;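 further: on the % scale 0 is the no-effect control and ±100 the full control effect; nearly all actives have a fitted effect of over 50% in size; the assay follows cell death caused by Vpr and the record does not say whether a fall means rescue or toxicity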
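Fission yeast strain RE007, carrying one chromosomally integrated HIV-1 vpr copy, was seeded at OD 0.01 in PMG+AL medium with 23 nL pinned compound. After 24 h at 30 °C and 99% humidity, viability was read by BacTiter-Glo luminescence.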
MARV entry inh = qHTS for inhibitors of binding or entry into cells for Marburg Virus. 300,000 tested, 1.8% active. Marburg virus pseudotyped entry inhibition, cell reporter; control for the full effect not named in the record; about a third of the inactives were read at about 46 µM. Potency, µM (highest dose often 37.8 µM), without a hit: at the top dose activity change, negative = inhibition, hits mostly inhibitors; active = well fitted inhibition curve with a large enough effect; inconclusive = small, poorly fitted or top-dose-only effect, or effect the other way; inactive = flat fitted curve, though single readings scatter; tested in HEK293 cells; about a fifth of its hits are not listed in these tables; further: on the % scale 0 is the no-effect control and ±100 the full control effect; luciferase read-out
StopGo reporter = High Throughput Screening for Foot and Mouth Disease Virus Antivirals; human cells with a luciferase reporter of 2A StopGo recoding; control for the full effect not named in the record; Potency, µM (highest dose often 57.9 µM), for the others: top-dose signal change, negative = less light; 410,000 tested, 1.2% active; AID 1159524, 2015; active = well fitted falling curve with a large enough effect; inconclusive = small, poorly fitted or top-dose-only effect; inactive = no such curve, though single readings can be large or run the other way; tested in HEK293T cells; further: on the % scale 0 is the no-effect control and ±100 the full control effect; nearly all actives have a fitted effect of over 45% in size; luciferase light after 4 h
SARS PLpro yeast = qHTS of Yeast-based Assay for SARS-CoV PLP; AID 485353, 2010; S. cerevisiae expressing SARS-CoV PLpro, growth rescue; control for the full effect not named in the record; Potency, µM (titrated, usually from 32.9 µM), for inactives: top-dose activity, positive = growth rescue; 330,000 tested, 0.19% active; further: 0% is about no effect; nearly all actives have a fitted effect of over 55% in size; growth read by luminescence after 48 h
NS1 function inh = qHTS Assay for Inhibitors of Influenza NS1 Protein Function. S. cerevisiae slowed by influenza A NS1, growth recovery by OD600. AID 2326, 2010. 270,000 tested, 0.4% active. Potency, µM (titrated, usually from 46.1 µM), inactives show at the top dose activity, positive = more growth; further: actives are rising curves; nearly all actives have a fitted effect of over 50% in size
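In this qHTS, NS1 from influenza A is expressed in budding yeast, where it slows growth. Cells are switched from glucose to 2% galactose medium (pH 6.0, -URA), treated with compound, and growth recovery is read at OD600.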
LASV entry inh = qHTS for Inhibitors of binding or entry into cells for Lassa Virus; Lassa virus pseudotype entry inhibition, cell reporter; control for the full effect not named in the record; 300,000 tested, 1.2% active; Potency, µM (doses to about 37.9 µM), inactives show top-dose activity change, negative = inhibition, hits mostly inhibitors; active means well fitted inhibition curve with a large enough effect; inconclusive means small, poorly fitted or top-dose-only effect, or effect the other way; inactive means flat fitted curve, though single readings scatter; tested in HEK293 cells; further: on the % scale 0 is the no-effect control and ±100 the full control effect; nearly all actives have a fitted effect of over 50% in size; luciferase read-out
Cruzain inh noDet = qHTS Assay for Promiscuous and Specific Inhibitors of Cruzain (without detergent); purified cruzain, Z-FR-AMC fluorescence, no detergent; Potency, µM, without a hit: max response, negative = inhibition, actives largely listed as inhibitors; 200,000 tested, 2.3% active; AID 1476, 2009; active means well fitted curve in the direction sought with a large enough effect; inconclusive means small, poorly fitted or top-dose-only effect, or another doubt; inactive means no such curve, though single readings can be large; an effect the other way counts as inactive or inconclusive;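 further: plate controls were enzyme without inhibitor for no effect and buffer without enzyme for full effect; nearly all actives have a fitted effect of over 40% in size; top concentration of the series not given in the record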
Target sequence (P25779 123-467 limits assumed): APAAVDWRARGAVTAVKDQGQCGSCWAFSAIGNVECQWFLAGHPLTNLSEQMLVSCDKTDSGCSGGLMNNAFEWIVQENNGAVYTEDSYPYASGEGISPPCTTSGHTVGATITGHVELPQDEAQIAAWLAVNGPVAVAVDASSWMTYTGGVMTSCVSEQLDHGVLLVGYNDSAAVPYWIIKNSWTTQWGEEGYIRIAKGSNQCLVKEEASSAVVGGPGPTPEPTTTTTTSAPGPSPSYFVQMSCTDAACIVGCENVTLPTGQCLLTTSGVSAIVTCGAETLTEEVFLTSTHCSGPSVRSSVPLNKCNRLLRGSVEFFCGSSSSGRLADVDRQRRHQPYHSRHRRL
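Detergent-free condition (0.00005% Triton X-100) in acetate buffer pH 5.5 with DTT. 1.5 nM enzyme and compound were pre-mixed 15 min, then 2 uM Z-FR-AMC substrate added; reaction progress from fluorescence change between first and third reads (60 s).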
Cruzain Triton = qHTS Assay for Promiscuous and Specific Inhibitors of Cruzain (with detergent). Potency, µM, for inactives: max response, negative = inhibition, hits mostly inhibitors. Cruzipain (Trypanosoma cruzi), P25779. purified cruzain, Z-FR-AMC fluorescence, 0.01% Triton. 200,000 tested, 0.43% active; active means well fitted curve in the direction sought with a large enough effect; inconclusive means small, poorly fitted or top-dose-only effect, or another doubt; inactive means no such curve, though single readings can be large; an effect the other way counts as inactive or inconclusive;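 further: plate controls were neutral wells for no effect and buffer without enzyme for full effect; nearly all actives have a fitted effect of over 40% in size; top concentration of the series not given in the record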
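15 min RT preincubation of 1.5 nM cruzain with compound, then 2 uM Z-FR-AMC added; kinetic AMC fluorescence, 60 s delta. Triton X-100 0.01%, pH 5.5.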
Numbers without * were called inactive; ? = inconclusive; nt = no result given; ! = a repeat was not active; [ ] = another dose, or the depositor's remark. Unless noted, the call rests on the fitted dose curve; in most records, active means well fitted rising curve with a large enough effect; inconclusive means small, poorly fitted or top-dose-only effect; inactive means no such curve, though single readings can be large or run the other way. Potency means the concentration at half of the fitted maximal effect. Rows were taken by chance; any-hit rate near 4.7%.

cpd	canonical_smiles	RE007 growth inh	MARV entry inh	StopGo reporter	SARS PLpro yeast
1	CC1CCN(C(=O)CNC(=O)CNC(=O)Cc2ccccc2)CC1	-6%	-4%	-11%	24%
2	CN(CC(=O)Nc1ccc(F)c(F)c1F)C(=O)C1CC(=O)N(C2CCCC2)C1 (configuration not stated)	5%	7%[46.1 µM]	-12%	3%
3	Cc1nnc(SCc2cccs2)[nH]c1=O	-1%	?	-8%	6%
4	CCN1CC2(COC(=O)c3ccccc3N)CCC(OC)C34C5CC6C(OC)CC(O)(C5C6OC)C(O)(C(OC)C23)C14 (configuration not stated)	-3%	26%	0%	2%
5	COc1ccc(CCn2c(NN=C(C)C)nc3c2c(=O)[nH]c(=O)n3C)cc1	7%	nt	?	-2%
6	CCN1C(=O)c2cccc3c(S(=O)(=O)Nc4ncccc4C)ccc1c23	-7%	-17%	nt	-1%
7	CCC1(c2ccc(F)cc2)NC(=O)N(CC(=O)Nc2ccc(N3CCCCC3)cc2)C1=O (configuration not stated)	4%	?	-19%	-5%
8	Cc1ccc(N2CC(C(=O)N3CCc4ccccc4C3)CC2=O)cc1 (configuration not stated)	4%	9%	nt	-12%

cpd	NS1 function inh	LASV entry inh	Cruzain inh noDet	Cruzain Triton
1	13%	0%	nt	nt
2	nt	5%	nt	nt
3	1%	-1%	-13%	-0.8%
4	-5%	13%	1%	-3.8%
5	8%	nt	nt	nt
6	-10%	-29%	-2%	-1.5%
7	nt	?	nt	nt
8	2%	3%	1%	2.5%

Complete entries from above:
Cc1ccc(N2CC(C(=O)N3CCc4ccccc4C3)CC2=O)cc1 (configuration not stated) in the list: RE007 growth inh: 4%; MARV entry inh: 9%; StopGo reporter: nt; SARS PLpro yeast: -12%; NS1 function inh: 2%; LASV entry inh: 3%; Cruzain inh noDet: 1%; Cruzain Triton: 2.5%
CCN1C(=O)c2cccc3c(S(=O)(=O)Nc4ncccc4C)ccc1c23 in the list: RE007 growth inh: -7%; MARV entry inh: -17%; StopGo reporter: nt; SARS PLpro yeast: -1%; NS1 function inh: -10%; LASV entry inh: -29%; Cruzain inh noDet: -2%; Cruzain Triton: -1.5%

Following part.
cpd	canonical_smiles	RE007 growth inh	MARV entry inh	StopGo reporter	SARS PLpro yeast
9	O=c1c2ccccc2cnn1Cc1n[nH]c(=S)n1-c1cc(Cl)cc(Cl)c1	2%	3%	-17%	12%
10	O=C1NC[C@@H](Cc2ccc(O)cc2)N(CCc2cccc(F)c2)C1=O	-19%	nt	2%	1%
11	COc1cccc(-c2nc(CS(=O)(=O)CC(=O)Nc3c(C)cc(C)cc3C)c(C)o2)c1	nt	-5%[46.1 µM]	-20%	nt
12	Cc1csc(=O)n1CC(=O)OCC(=O)c1c(N)n(C)c(=O)n(C)c1=O	-11%	10%[46.1 µM]	0%	2%
13	CCOC(=O)C1CCN(C(c2cccs2)c2sc3nc(C)nn3c2O)CC1 (configuration not stated)	5%	nt	-12%	-2%
14	C=CCc1cc(OC)ccc1OCCCCn1cncn1	-4%	nt	-9%	?
15	CCOC(=O)c1c(-c2ccc(F)cc2)csc1/N=C/N(C)C	-15%	?	-23%	0%
16	CCOC(=O)CNS(=O)(=O)c1ccc(S(=O)(=O)NC2CC2)cc1	6%	-14%	46%[activator]	1%

cpd	NS1 function inh	LASV entry inh	Cruzain inh noDet	Cruzain Triton
9	21%	11%	10%	-5.5%
10	0%	nt	nt	nt
11	nt	-5%[46.1 µM]	-21%	-0.8%
12	nt	-8%	nt	nt
13	-76%	nt	3%	-4.2%
14	-29%	nt	nt	nt
15	nt	?	nt	nt
16	1%	12%	nt	nt

(further entries)
cpd	canonical_smiles	RE007 growth inh	MARV entry inh	StopGo reporter	SARS PLpro yeast
17	COC(=O)c1cc2sc(Cl)cc2n1Cc1nc(-c2ccccc2C)oc1C	nt	-26%[46.1 µM]	-1%	nt
18	NC(=S)N/N=C/c1ccc(OC(=O)c2cccnc2)cc1	23%	nt	-6%	8%
19	Cc1ccc(NC(=O)c2cccc3cccnc23)cc1	-26%	1%[46.1 µM]	35%[activator]	-9%
20	CCCCN(C(=O)CCC(=O)Nc1cc(C)on1)C(C(=O)NC1CCCC1)c1ccccc1C (configuration not stated)	-17%	-19%[46.1 µM]	5%	1%
21	COc1cc2c(cc1NC(=S)Nc1cccc3ccccc13)oc1ccccc12	-20%	2%	38%[activator]	-11%
22	CCC(=O)c1ccc(OCC(O)CN2CCN(c3ccccn3)CC2)cc1 (configuration not stated)	-4%	?	-12%	-6%
23	CCOc1ccc2oc(C(=O)NCC3CCCO3)c(C)c2c1 (configuration not stated)	-5%	nt	53%[activator]	-7%
24	CCc1c(O)nc(SCC(=O)Nc2ccccc2)n(C(C)CC)c1=O (configuration not stated)	4%	8%	nt	0%

cpd	NS1 function inh	LASV entry inh	Cruzain inh noDet	Cruzain Triton
17	nt	nt	-6%	-2.0%
18	-2%	nt	nt	nt
19	-103%	8%[46.1 µM]	nt	nt
20	15%	0%	nt	nt
21	26%	16%	10µM*	-7.8%
22	-17%	-26%[46.1 µM]	nt	nt
23	1%	nt	nt	nt
24	1%	27%	-19%	-12%

Carrying on.
cpd	canonical_smiles	RE007 growth inh	MARV entry inh	StopGo reporter	SARS PLpro yeast
25	O=C(O)c1cccc2c1Cc1cc([N+](=O)[O-])ccc1-2	4%	-3%[46.1 µM]	14%	nt
26	O=C(/C=C/c1ccccc1)N1CCN(c2c(Cl)cccc2[N+](=O)[O-])CC1	-9%	-6%	?	-47%
27	COc1ccc(CCNC(=S)Nc2ccccc2)cc1	-3%	nt	27%	-1%
28	Cc1cccc(-c2nnc(SCc3cc(=O)c4cccc(Cl)c4[nH]3)n2C)c1	nt	nt	25µM*	nt
29	CC(=O)NC(Cc1ccccc1)C(=O)OCC(=O)c1ccccc1 (configuration not stated)	nt	?	-22%	-3%
30	Clc1cccc2sc(-c3nnc(-c4ccccc4)o3)c(Cl)c12	-12%	?	62%[activator]	nt
31	CC1Cc2ccccc2N1S(=O)(=O)c1cccc(C(=O)c2nccn2C)c1 (configuration not stated)	1%	-8%	nt	-3%
32	O=S(=O)(c1ccccc1)N1CCC2(CC1)OCCN2S(=O)(=O)c1cccs1	1%	?	35%[activator]	5%

cpd	NS1 function inh	LASV entry inh	Cruzain inh noDet	Cruzain Triton
25	nt	23%[46.1 µM]	nt	nt
26	1%	9%	1%	-5.0%
27	-7%	nt	nt	nt
28	nt	-20%[46.1 µM]	-11%	0.3%
29	-34%	13%	-1%	-3.8%
30	nt	6%	nt	nt
31	-47%	-11%	-6%	4.3%
32	nt	1%[46.1 µM]	nt	nt

(next part)
cpd	canonical_smiles	RE007 growth inh	MARV entry inh	StopGo reporter	SARS PLpro yeast
33	O=S(=O)(Nc1cc2nc3ccccc3nc2n1Cc1ccccc1)c1ccc(Cl)cc1	4%	?	12%	-7%
34	COC(=O)c1ccc(CN2CCC(Oc3cccc(C(=O)N4CCCC4)c3)CC2)cc1	-9%	-22%	0%	nt
35	Cc1ccc(NC(=O)c2cc(S(=O)(=O)N3CCC4(CC3)OCCO4)ccc2F)cc1	-9%	19%	0%	9%
36	CC(C)CCNC(=O)c1ccc2c(c1)N(Cc1ccccc1F)C(=O)c1ccccc1S2(=O)=O	nt	-22%[46.1 µM]	27%	nt
37	Cn1c(=O)cc(OCCCC(=O)Nc2cccnc2)c2ccccc21	7%	7%	-3%	-6%
38	O=C(O)CNC(=O)c1ccc(Oc2c(F)c(F)c(Oc3ccc(C(=O)NCC(=O)O)cc3)c(F)c2F)cc1	16%	18%[46.1 µM]	13%	2%
39	CC1CCCN(S(=O)(=O)c2ccc(NC(=O)Cc3ccc(S(=O)(=O)N4CCOCC4)s3)cc2)C1 (configuration not stated)	4%	2%[46.1 µM]	-21%	nt
40	Cc1nn(-c2ccccc2)c2sc(C(=O)NC3CC3)cc12	6%	1%	29%	-11%

cpd	NS1 function inh	LASV entry inh	Cruzain inh noDet	Cruzain Triton
33	-4%	7.3µM*!	-19%	-7.7%
34	nt	13%	nt	nt
35	-19%	-20%	?	-1.5%
36	nt	-20%[46.1 µM]	10%	-3.0%
37	-12%	-5%	-2%	2.6%
38	9%	5%	nt	nt
39	nt	-1%	nt	nt
40	?	?	7%	3.4%

Further compounds
cpd	canonical_smiles	RE007 growth inh	MARV entry inh	StopGo reporter	SARS PLpro yeast
41	COCCC(=O)N1CCC(Oc2ccc(C(=O)N(C)Cc3cc(C)no3)cc2)CC1	3%	4%	7%	-3%
42	Cc1cc(N2CCC(C(=O)Nc3ccc(F)cc3)CC2)nc(-c2ccccc2)n1	-9%	?	-27%	-8%
43	COCCCNC(=O)c1ccccc1SC	-10%	0%	-19%	0%
44	Cc1[nH]c(=O)c(C(=O)/C=C/c2ccccc2)c2c1CCCC2	-13%	?	13µM*	5%
45	CCc1ccc(NC(=O)CSc2nc(=O)n(Cc3cccnc3)c3c2CCC3)cc1	nt	nt	-11%	nt
46	CCCN1C(=O)c2cccc3c(N4CCCCC4)ccc(c23)C1=O	-2%	?	13%	18%
47	COc1cc(CNn2c(C)n[nH]c2=S)cc(Cl)c1OCc1ccc(F)cc1	5%	?	nt	-7%
48	CS(=O)(=O)N(CC(=O)N1CCC(C(N)=O)CC1)c1ccc(Cl)c(C(F)(F)F)c1	-14%	15%	8%	-1%
49	O=C(NCCCN1CCCC1=O)c1cccnc1	14%	23%	11%	2%

cpd	NS1 function inh	LASV entry inh	Cruzain inh noDet	Cruzain Triton
41	-3%	1%	nt	nt
42	-39%	-13%	4%	-6.4%
43	10%	6%	2%	3.9%
44	-6%	?	-1%	-1.6%
45	nt	-26%[46.1 µM]	22%	-1.7%
46	3%	8%	15%	-3.8%
47	9%	-14%	-2%	-8.9%
48	-1%	2%	1%	9.4%
49	4%	2%	-4%	-0.8%

From PubChem BioAssay
